High-throughput results from PubChem.
FGF22 binding = binders of human FGF22 protein, primary screen, FGF22 synaptogenesis inhibitor project, biophysical, thermal shift, single point; Fibroblast growth factor 22 (Homo sapiens), Q9HCT0; recombinant FGF22 thermal shift, SYPRO orange fluorescence; percent of sucrose octasulfate shift, DMSO zero; calls only at 9.99 µM; 340,000 tested, 1.5% active;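 active = melting point raised past a set limit in the mean and every replicate; inconclusive = no clear call; three in four hits are not shown here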
Target sequence (Q9HCT0 whole entry, looked up): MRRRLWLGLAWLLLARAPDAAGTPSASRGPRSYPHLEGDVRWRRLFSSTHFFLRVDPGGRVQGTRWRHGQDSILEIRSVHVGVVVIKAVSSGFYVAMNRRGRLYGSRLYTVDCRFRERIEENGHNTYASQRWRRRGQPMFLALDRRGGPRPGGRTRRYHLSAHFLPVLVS
Vif A3G = inhibitors of Vif binding to APOBEC3G peptide, primary screen, biochemical, TR-FRET, GST-Vif 1-94, biotin-A3G peptide, dose response retest (AID 1117319); TR-FRET GST-Vif / biotin-A3G peptide binding; higher % means a stronger effect; test concentration not given here; strong numbers were not always called active; inhibition, %; hits with a dose series show IC50 in µM; 260,000 tested, 0.57% active;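 active = above the screen mean plus three standard deviations and confirmed in dose response; inconclusive = results disagree or hit not tested in dose response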;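 note: Vif residues 1-94 fused to GST binding biotinylated APOBEC3G peptide 110-148; 0% = full assay without inhibitor and 100% = GST in place of GST-Vif; retest series ran down from 100 µM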
E coli growth = E. coli growth inhibition, primary screen, OD600; Escherichia coli growth, 23 h; stronger effect = lower value; OD600 absorbance (no concentration beside the values); 330,000 tested, 0.21% active; AID 1053175, 2014;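 active = OD600 absorbance below the run mean of sample wells minus 3.6 SD, in any replicate, cut at about 0.56 in these data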;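 note: stock transfer was 300 nL into about 60 µL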
HNF4A DNA FP = change in binding of human HNF4A to DNA, primary screen, biochemical, fluorescence polarization, FITC-DNA; Hepatocyte nuclear factor 4-alpha (Homo sapiens), P41235; 1 h; activity change, % at 10 µM; 360,000 tested, 0.3% active; in the data active = activity change above about 30%, passing the limit was not always enough;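 note: controls were the assay level and a saturating level of protein; the project sought stronger binding though the title names inhibitors; some compounds called inactive have numbers as strong as hits; positive values seem to mean higher polarization but the record does not say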
Target sequence (P41235 whole entry, looked up): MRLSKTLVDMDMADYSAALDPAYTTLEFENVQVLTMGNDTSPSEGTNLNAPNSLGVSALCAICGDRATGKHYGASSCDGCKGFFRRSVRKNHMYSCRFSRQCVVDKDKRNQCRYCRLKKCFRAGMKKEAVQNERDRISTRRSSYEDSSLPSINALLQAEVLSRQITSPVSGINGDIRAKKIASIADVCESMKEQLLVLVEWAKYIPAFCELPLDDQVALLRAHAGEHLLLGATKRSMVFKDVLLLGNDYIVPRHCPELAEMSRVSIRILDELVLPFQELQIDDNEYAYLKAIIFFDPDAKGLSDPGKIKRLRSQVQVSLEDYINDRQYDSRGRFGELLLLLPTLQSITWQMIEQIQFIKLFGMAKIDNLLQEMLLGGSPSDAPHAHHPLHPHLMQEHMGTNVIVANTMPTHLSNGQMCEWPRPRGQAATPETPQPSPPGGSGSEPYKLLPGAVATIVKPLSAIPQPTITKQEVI
RanGTP-Impb inh = inhibitors of RanGTP-importin-beta interaction, primary screen, biochemical, FRET, CFP-Ran, YFP-importin-beta, homogeneous. Ran GTPase (GTP-bound) - importin-beta complex. cell-free CFP-Ran/YFP-importin-beta FRET ratio. inhibition, % (no concentration beside the values). 300,000 tested, 1.1% active. AID 2216, 2009;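 active = most replicates above 15%; inconclusive = exactly half above 15%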;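 note: 0% = DMSO wells and 100% = Ran loaded with GDP instead of GTP; wells of about 40 µL received 100 nL stock; the first replicate is given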
UCH37 inh = inhibitors of human UCH37 deubiquitinase, primary screen, biochemical, Ub-AMC cleavage, fluorescence; inhibition, % (test concentration not listed); Ubiquitin carboxyl-terminal hydrolase isozyme L5 (Homo sapiens), Q9Y5K5; purified proteasome/UCH37; 330,000 tested, 0.33% active; AID 588478, 2011;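 active = mean of two replicates above 20%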;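 note: 0% = compound-free wells with enzyme and 100% = wells lacking proteasome; stock transfer was 100 nL into about 20 µL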
Target sequence (Q9Y5K5 whole entry, looked up): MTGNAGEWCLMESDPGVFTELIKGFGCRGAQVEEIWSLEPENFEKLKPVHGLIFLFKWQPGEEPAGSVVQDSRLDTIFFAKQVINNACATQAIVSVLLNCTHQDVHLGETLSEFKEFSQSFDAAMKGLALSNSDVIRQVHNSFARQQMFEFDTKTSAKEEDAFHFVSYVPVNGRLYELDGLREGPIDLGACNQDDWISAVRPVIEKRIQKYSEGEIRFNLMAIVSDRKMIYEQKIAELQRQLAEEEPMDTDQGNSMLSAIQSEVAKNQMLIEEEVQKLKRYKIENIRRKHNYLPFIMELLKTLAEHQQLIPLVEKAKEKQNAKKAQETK
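Material: Human UCH37 enzyme supplied as purified proteasome complex | Schedule: 30 min preincubation with enzyme, 25 min cleavage at room temperature | Detection: AMC fluorescence 355/460 nm | Measure: % inhibition of Ub-AMC cleavage fluorescence | Controls: Wells without proteasome as full block, compound-free enzyme plus substrate as uninhibited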
AF4-AF9 inh = inhibitors of AF4 peptide binding to AF9, primary screen, biochemical, AlphaScreen, biotin-AF4 peptide, FLAG-AF9, single point | Protein AF-9 (Homo sapiens), P42568 | inhibition, % at 10 µM | 350,000 tested, 0.47% active;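 active = every replicate reaching a set inhibition limit, whatever the replicate mean, cut at about 25% in these data; inconclusive = mean inhibition reaches that limit but some replicates miss it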;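 note: 0% = plate neutral control median and 100% = total signal loss; the record names both 10 and 1 µM as test concentration; the first replicate is given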
Active calls of the source: *; i = inactive; ? = inconclusive; . = no result given. This is a subset; rates above refer to the full screens.

SMILES	FGF22 binding	Vif A3G	E coli growth	HNF4A DNA FP	RanGTP-Impb inh	UCH37 inh	AF4-AF9 inh
COc1ccc(C(=O)Sc2nncc3ccccc23)cc1	i	-3.5%	0.646	3.2	1.4	6.6	-7.8
CNC[C@H]1Oc2ccc(NC(=O)Cc3cn(C)c4ccccc34)cc2CC(=O)N([C@@H](C)CO)C[C@H]1C	i	.	.	18.6	.	.	5.5
Cc1ccc(NC(=O)C2CCN(C(=O)N3CCOc4ccccc43)CC2)cc1	i	.	0.76	6.4	5.9	1.0	0.3
O=c1[nH]cnc2c1nnn2Cc1ccccc1	i	0.5%	0.696	2.2	2.1	0.1	-2.8
COc1ccc(-c2cc(-c3cc(OC)ccc3O)[nH]n2)cc1	.	22.0%	0.629	-0.1	?	-1.9	.
CC(C)(C)C(=O)N1CCN(c2ccc([N+](=O)[O-])c(NCC3CCCO3)c2)CC1 (stereo not given)	.	-1.8%	0.616	3.9	2.6	11.1	.
CCOC(=O)C1=C(O)/C(=C/c2cc(OC)c(OC)c(OC)c2)N=C1C	.	4.9%	.	0.1	-1.5	2.2	.
O=C(O)c1csc(Br)c1Br	.	-3.0%	0.683	0.0	-3.1	0.6	.
CCC1CCCCN1CCCNC(=O)c1ccc(CS(=O)(=O)c2ccc(Br)cc2)o1 (stereo not given)	i	-7.5%	0.693	0.7	0.3	1.2	0.6
CNS(=O)(=O)c1cccc(C(=O)OCC(=O)NC2CCCC(C)C2C)c1 (stereo not given)	i	.	0.688	0.5	.	1.5	-1.6
Cc1cc(NC(=O)CCc2ccccc2)c([N+](=O)[O-])cc1C	.	.	0.674	3.7	0.0	5.2	.
O=[N+]([O-])c1cc(S(=O)(=O)N2CCCC2)ccc1SCCO	i	-4.4%	0.708	-0.3	4.4	5.5	0.3

Complete entries as entered above. Screens in order: FGF22 binding	Vif A3G	E coli growth	HNF4A DNA FP	RanGTP-Impb inh	UCH37 inh	AF4-AF9 inh
CNS(=O)(=O)c1cccc(C(=O)OCC(=O)NC2CCCC(C)C2C)c1 (stereo not given) is listed as i	.	0.688	0.5	.	1.5	-1.6
CCOC(=O)C1=C(O)/C(=C/c2cc(OC)c(OC)c(OC)c2)N=C1C is listed as .	4.9%	.	0.1	-1.5	2.2	.

New compounds follow
SMILES	FGF22 binding	Vif A3G	E coli growth	HNF4A DNA FP	RanGTP-Impb inh	UCH37 inh	AF4-AF9 inh
COc1cccc(/C=N/Nc2nnc3c(n2)[nH]c2ccccc23)c1OC	.	-18.3%	.	-0.3	5.4	.	-1.2
Cc1cc(-c2ccc(C(C)C)c(S(=O)(=O)Nc3cc(C)on3)c2)on1	i	.	0.664	0.5	7.2	1.1	-1.2
CCN(CC(=O)Nc1c(F)cccc1F)C(=O)Cc1csc(-c2ccccc2)n1	i	-11.4%	0.686	0.6	?	-2.0	0.5
COc1ccc(-c2ccc(C)cc2)cc1[C@H]1[C@@H]2C=CCC[C@@]2(C)C(=O)N1Cc1ccccc1	i	.	.	2.7	?	-1.4	-4.7
O=C(NCc1ccccc1)c1cc(C2COCCN2C(=O)c2ccc3c(c2)CCO3)on1 (stereo not given)	i	.	.	-0.1	.	.	-0.7
CC(=O)N1CCOc2cc(S(=O)(=O)NCc3ccc(F)cc3)c(C)cc21	.	-15.6%	0.754	0.0	0.8	4.1	-4.3
CC(C)c1cc(CNC(=O)c2ccc(OC3CCN(Cc4ccccn4)CC3)cc2)on1	i	.	0.668	-1.5	4.2	3.7	2.6
CC(C)CCN1CCN(Cc2cccn2-c2ccccn2)CC1CCO (stereo not given)	i	.	0.706	-0.9	8.7	5.5	1.5
CN1CCN(NC(=O)c2cc([N+](=O)[O-])cc([N+](=O)[O-])c2)CC1	.	12.1%	0.759	-1.8	4.0	3.7	.
COc1ccc(OC)c(Cc2nnc(CCC(=O)NCc3ccsc3)o2)c1	i	-1.5%	0.652	0.8	1.3	2.1	-0.7
O=C(CSCc1ccccc1)Nc1ccc(S(=O)(=O)N2CCOCC2)cc1	.	-0.2%	0.746	0.6	-0.1	-3.3	.
Cc1cc(C)c(S(=O)(=O)N2CCN(S(=O)(=O)N3CCCCCC3)CC2)c(C)c1	i	.	0.709	-1.3	0.6	1.7	-2.0
N#CC(=C1CCCC1)c1nc(-c2ccccc2)cs1	.	7.5%	0.736	-2.7	5.9	0.8	.
Cc1cc(NC(=O)COC(=O)c2ccc([N+](=O)[O-])cc2Cl)no1	i	-7.9%	0.596	-4.0	.	1.3	0.5
O=C1CC(=O)CC(c2ccccc2)C1	i	7.9%	0.678	-0.4	-2.5	1.5	-2.6
Cc1cccn2c(=O)nc(SCC(=O)Nc3ccc4c(c3)OCO4)nc12	i	0.1%	0.711	2.1	2.8	-3.4	-1.0
CCOc1ccc(CN(C)C(=O)c2ccc3ccccc3n2)cc1	i	.	0.711	-0.1	1.2	0.0	-0.6
CSc1cccc(CN2CCC(n3nccc3NC(=O)C3CC3)CC2)c1	i	.	0.641	-0.6	0.2	2.7	-4.1
CCOC(=O)C1=C(C)NC(=S)NC1c1ccco1 (stereo not given)	i	.	0.59	0.7	4.2	2.6	-0.9
Cn1c(SCC(=O)Nc2ccc(N3CCOCC3)c(Cl)c2)nnc1C(O)c1ccccc1 (stereo not given)	.	2.2%	0.757	0.2	-6.4	5.0	.
CC(Oc1ccc(-c2nccc(-c3ccccn3)n2)cc1)C(=O)NN (stereo not given)	.	-1.7%	0.784	0.7	11.4	1.7	.
O=C(CSc1nnc(CCCN2C(=O)c3cccc4cccc(c34)C2=O)n1-c1ccccc1)N1CCCCC1	.	4.1%	0.68	-1.0	2.2	-4.3	.
COc1ccccc1NC(=O)C1=C(C)Nc2nc(-c3cccs3)nn2C1c1cccc(O)c1 (stereo not given)	.	11.3%	.	5.0	-1.3	.	.
COCc1cc(C)n(CC(=O)Nc2ccc(N3CCOCC3)cc2)c(=O)c1C#N	.	3.0%	0.668	0.0	?	8.3	0.2
CCOC(=O)c1c(O)c2ccccc2n(-c2ccccc2)c1=O	.	77.3%	0.76	-29.9	-5.7	5.6	.
O=C(c1ccc2c(c1)C(=O)N(CCCO)C2=O)c1ccc2c(c1)C(=O)N(CCCO)C2=O	.	4.8%	0.77	-1.8	.	-1.3	.
CCCCCCCCOc1ccc(C2OC34CCCCC3C(C#N)(C#N)C2(C#N)C(=N)O4)cc1 (stereo not given)	.	?	0.787	-36.7	43.6*	-110.9	.
CC(C)(C)n1nnnc1CN(Cc1ccco1)Cc1cc2cc3c(cc2[nH]c1=O)OCO3	.	20.6%	0.76	-13.7	-11.2	-32.4	.
Nc1ccc2oc(-c3cccc(Br)c3)nc2c1	.	-5.9%	0.69	0.5	4.5	-68.6	.
CC1Cc2cc(S(=O)(=O)N3CCN(c4cccc(Cl)c4)CC3)ccc2N1C(=O)C1CC1 (stereo not given)	i	-2.8%	0.639	-1.0	2.3	3.3	-7.6
CSc1nnc2c(n1)OC(C)=Nc1ccccc1-2	.	11.4%	0.68	1.0	0.0	3.6	.
CCOC(=O)c1c(S(=O)(=O)NCCc2ccccc2)c(C)n(C)c1C	i	.	0.702	-2.8	-0.1	0.6	12.4
CCS/C(N)=N/N=C/c1cc(C)ccc1O	.	7.6%	.	-6.2	3.6	.	.
CCN(c1cccc(C)c1)S(=O)(=O)c1cccc(C(=O)O)c1	.	2.0%	0.661	3.1	0.5	-0.5	.
CCCc1cc(=O)[nH]c(SCC(=O)c2c(N)n(C3CC3)c(=O)[nH]c2=O)n1	i	1.3%	0.697	-2.2	.	1.7	-1.3
CCCCCn1c(N2CCN(c3cccc(Cl)c3)CC2)nc2c1c(=O)[nH]c(=O)n2C	.	16.7%	0.67	-3.5	0.6	4.2	.
CC(C)Oc1ccc(S(=O)(=O)N2CCOCC2)cc1NC(=O)C1CCCC1	i	-5.3%	0.708	-1.5	.	-2.4	-0.1
Cc1sc[n+](CC(=O)c2ccc(Br)cc2)c1C	i	.	0.67	1.8	3.4	1.9	1.3
N#C/C(=C\c1c(N2CCC(C(N)=O)CC2)nc2ccccn2c1=O)S(=O)(=O)c1ccc(Cl)cc1	i	.	0.694	1.7	3.9	4.0	-0.8
S=c1[nH]nc(-c2ccccc2)n1C1C=CCCC1 (stereo not given)	.	10.0%	0.618	1.3	3.3	1.1	.
CNCc1ccccc1OCc1ccc(F)cc1	i	-4.9%	0.668	0.9	-16.6	0.3	0.0
Cc1cccc(CN2C[C@]34CC[C@@H](C[C@@H]3S2(=O)=O)O4)c1	.	.	.	2.6	2.2	2.5	.
O=C(OCc1c(-c2ccccc2)ncc2ccccc12)c1cccc(Br)c1	i	.	0.725	6.0	.	1.5	0.5
O=C(NCCN1CCOCC1)/C(=C/c1ccc(F)cc1)NC(=O)c1ccccc1	i	.	0.634	-4.0	3.3	7.0	-2.4
N=c1c(C(=O)NC2CCCCC2)cc2c(=O)n3ccccc3nc2n1CCc1ccccc1	i	-7.2%	0.692	-1.4	160.7*	i	-2.3
CC(=O)N1CCN(c2cc(-c3ccccc3)nc3cc(-c4cccc(Cl)c4)nn23)CC1	i	.	.	3.2	.	.	-8.1
CC(=O)c1c(C)[nH]c(C(=O)CSc2nnc(C)s2)c1C	i	.	0.693	1.9	-1.6	2.7	-0.8
Cc1ccc2[nH]c3c(c2c1)CN(C(C)C)CC3	i	-4.0%	0.667	0.2	-1.5	2.9	6.7
O=C(O)/C(=C\c1cccs1)Sc1nnc(-c2ccc(F)cc2)o1	i	1.8%	0.711	-3.3	-3.9	3.1	-4.0
CCOC(=O)C1=NNC2(CC(=O)N(c3cccc(C)c3)C2=O)C1 (stereo not given)	i	?	0.633	3.9	6.8	5.3	1.0
CC(=O)Nc1ccc(CN2CCN(C3CCCCC3)C(CCO)C2)cc1 (stereo not given)	i	0.0%	0.695	4.7	9.1	3.7	0.5
CC(=O)Nc1cccc(-c2nc3ccc(NC(C)=O)cc3[nH]2)c1	.	3.3%	0.693	-3.1	-4.2	-64.3	.
COc1cccc(NC(=O)C2(S(=O)(=O)c3ccc(Cl)cc3)CC2)c1	i	20.4%	0.713	-2.1	-3.8	1.3	-2.1
Cn1c(C(O)C(O)c2ccccc2)nc2ccccc21 (stereo not given)	i	-5.4%	0.663	0.4	2.7	0.9	-1.3
O=C(Cn1nnc(-c2ccc(F)cc2)n1)OCC(=O)c1ccccc1	i	-3.4%	0.687	1.0	19.9*	-0.3	-1.7
Cc1ccc(C(=O)NNC(=O)C2CCN(c3ncccn3)CC2)cc1	i	.	0.672	-3.6	8.6	-3.3	-3.6
O=C(CCN1C(=O)/C(=C/c2ccccc2)SC1=S)NCCCN1CCOCC1	.	.	0.706	1.0	2.0	8.4	5.3
Nn1c(SCC(=O)Nc2ccc(F)cc2)nnc1C1CCCCC1	.	5.2%	0.647	-1.3	6.3	0.5	.
CCc1cc(CC)c(/C=N/NC(N)=O)c(CC)c1/C=N/NC(N)=O	i	-0.7%	.	-8.4	-2.2	.	0.0
CCOc1ccc2cc(/C=C/C(=O)c3ccco3)c(Cl)nc2c1	.	14.3%	0.768	34.2*	-0.7	0.3	.
